# Source: PubChem (several laboratories)
# Rce1 inhib = blocks yeast Ras-converting enzyme. calls only. yeast membranes, quenched prenylated peptide cleavage fluorescence. 290,000 compounds, 0.27% hits. Q03530;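 active means fall in fluorescence gain of 50% or more versus controls, with final raw signal at or below 3038400; inconclusive means same 50% fall but final raw signal above 3038400; inactive means fall in fluorescence gain under 50%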;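 further: plate controls were neutral control wells for no effect and wells lacking membranes for full effect; tested at 10 µM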
# CSC inhib = cancer stem cell inhibition; cancer stem cell-like cells viability, luminescence; inhibition, % at 7.5 µM; 300,000 compounds, 1.1% hits;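 active means mean at 75% or more and at least half the replicates too; inconclusive means mean and replicates disagree; tested in HMLE shEcad cells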;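 further: 0% = median of negative and 100% = median of positive control wells; the first replicate is given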
# PABP polyA inh = blocks human PABP binding to poly(A) RNA | P11940 | inhibition, % at 35 µM | 290,000 compounds, 1% hits | fluorescence polarization;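 active means 50% or more with normal probe brightness, or confirmed in later tests; inconclusive means above 50% with abnormal brightness, or retests that disagree; inactive means below 50% or failed in later tests; about a fifth of its hits are not listed in these tables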;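 further: calls also rest on retests at 20 µM and on dose response follow-up; controls were probe without protein and protein plus probe with vehicle; some compounds called inactive have numbers as strong as hits; many hits fall short of the cut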
# Target sequence (P11940 whole entry, looked up): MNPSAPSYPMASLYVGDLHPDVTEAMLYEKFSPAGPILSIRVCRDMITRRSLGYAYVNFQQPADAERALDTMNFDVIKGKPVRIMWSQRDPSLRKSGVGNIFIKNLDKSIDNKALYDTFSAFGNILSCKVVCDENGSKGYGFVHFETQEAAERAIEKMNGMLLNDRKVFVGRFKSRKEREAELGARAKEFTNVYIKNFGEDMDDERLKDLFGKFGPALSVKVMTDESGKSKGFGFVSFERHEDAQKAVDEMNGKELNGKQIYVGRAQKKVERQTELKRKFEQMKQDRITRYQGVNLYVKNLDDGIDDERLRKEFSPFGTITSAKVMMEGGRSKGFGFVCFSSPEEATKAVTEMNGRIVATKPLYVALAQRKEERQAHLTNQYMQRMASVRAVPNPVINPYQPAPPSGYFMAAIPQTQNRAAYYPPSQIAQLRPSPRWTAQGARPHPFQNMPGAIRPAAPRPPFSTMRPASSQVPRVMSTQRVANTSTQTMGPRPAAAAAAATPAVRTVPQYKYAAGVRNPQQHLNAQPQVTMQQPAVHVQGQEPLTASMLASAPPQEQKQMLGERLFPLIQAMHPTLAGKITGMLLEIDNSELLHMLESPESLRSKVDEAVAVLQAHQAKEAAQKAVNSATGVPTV
# Env fusion inh = HIV envelope-mediated fusion inhibition; inhibition, % at 12.3 µM; 360,000 compounds, 1.1% hits; HeLa-JRFL Env/CEM21 cell fusion, luciferase;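 active means mean replicate inhibition score of at least 50 and every replicate individually at or above 50; inconclusive means only one of the two criteria met; inactive means mean below 50 and not all replicates reaching 50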;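 further: 0% = plate neutral controls and 100% = maraviroc near 300 nM; one replicate is shown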
# UUG fidelity = alters start codon recognition fidelity in yeast. S. cerevisiae UUG-firefly luciferase reporter, luminescence/redox ratio. activity score, % at 18.7 µM. 350,000 compounds, 0.13% hits. AID 602363;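 active means replicate mean at a twofold rise or more, about +100% in these data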;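 further: firefly luciferase made from a UUG start codon reports start codon fidelity; reporter light over untreated wells divided by growth signal over untreated wells; some hits fall short of that in this replicate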
# MT1-MMP act inh = blocks activation of human MT1-MMP; P50281; HT1080 RFP-PRO-GFP cells, GFP/RFP ratio fluorescence, overnight; percent of plate control window, DMSO zero; GFP/RFP ratio change, % at 20 µM; 360,000 compounds, 0.061% hits; AID 651647;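 active means GFP/RFP ratio change of at least 30% with cell ATP level not reduced by more than half and red fluorescence within 50% of control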; further: strong numbers were not always called active
#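 Assay system: HT1080 RFP-PRO-GFP cells. Benchmarks: DMSO vehicle wells and RFP-L50D-GFP reporter cell wells. Times: overnight cell settling, then overnight compound exposure, 37 °C, 5% CO2. Compound: 20 µM single dose, 1% DMSO. Read-out basis: GFP/RFP fluorescence ratio.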
# eIF4H FP inh = inhibitors of RNA binding by human eIF4H; Q15056; eIF4H fluorescence polarization binding assay; inhibition, % at 35 µM; 290,000 compounds, 0.94% hits; AID 2012;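 active means 50% or more with normal probe brightness, or confirmed in later tests; inconclusive means above 50% with abnormal brightness, or retests that disagree; inactive means below 50% or failed in later tests; about a fifth of its hits are not listed in these tables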;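 further: calls also rest on retests at 20 µM and on dose response follow-up; 0% = protein and probe with vehicle and 100% = probe without protein; strong numbers were not always called active; many hits fall short of the cut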
# MT1-MMP act inh RFP = further read-out of MT1-MMP act inh, marked with its call; RFP signal change, %; measured here: RFP expression control read;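 0 = vehicle wells; hits needed this value within 50% of zero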
# The depositor's hits bear a star; i = inactive; ? = inconclusive; . = not tested or not shown; & = joins results of further samples.
# Under each structure: Rce1 inhib, CSC inhib, PABP polyA inh, Env fusion inh, UUG fidelity, MT1-MMP act inh, MT1-MMP act inh RFP, eIF4H FP inh
1. Cc1nc(NC(=O)CCC(=O)O)sc1C(=O)N(C)C
→ i, -2, -2, ., -2, 1, 2, -1
2. CNC(=S)NC1CC2CCC(C1)N2Cc1ccccc1 (stereo not given)
→ i, 19, -4, ., -1, 9, -2, -9
3. CN(C)S(=O)(=O)c1ccc2c(c1)c(=O)c(C(=O)N1CCN(c3ccccn3)CC1)cn2C
→ i, -10, -3, -7, -9, 5, 10, 5
4. c1ccc(-c2ccc3ncccc3n2)cc1
→ ., ., ., -44, -17, -3, 0, .
5. O=C(Nc1c(C(=O)N2CCCC2)cnn1-c1ccccc1)c1cccc(F)c1
→ i, -17, 0, -74, 11, 0, 1, 4
6. CCOC(=O)c1c(NC(=O)CSc2nnnn2-c2ccccc2)sc2c1CCC(C)C2 (stereo not given)
→ i, -2, -9, ., -9, 0, -1, -12
7. C/C(=C\c1ccccc1)CN1CCN(C)CC1
→ i, 17, 4, 2, -19, 0, 3, 12
8. COCCn1c(CN2CCN(c3cccc(Cl)c3)CC2)nc2c1c(=O)n(C)c(=O)n2C
→ i, 8, -5, ?, -7, -9, -23, 9
9. CC(=O)Nc1ccc(C(=O)OCC(=O)Nc2c(C)n(C)n(-c3ccccc3)c2=O)cc1
→ ., -10, ., 17, -13, 1, 4, .
10. Cc1nc2n[nH]c(N)c2nc1C
→ ., ., ., 11, -7, 8, 6, .
11. COC(=O)c1ccccc1NC(=O)CSCC(=O)Nc1ccccc1
→ i, -23, -4, -41, -5, 0, -2, 0
12. CC1(C)CC(=O)C=C(c2ccc(COC(=O)Cc3ccccc3)cc2)C1=O
→ ., ., ., 12, -15, 2, 3, .
13. Cc1c(C(=O)NNC(=O)c2cccnc2)cccc1[N+](=O)[O-]
→ ., 3, ., ., -7, 4, 4, .
14. CCCc1cc(=O)[nH]c(SCC(=O)Nc2ccc(C)cc2)n1
→ i, -9, -5, -5, ., 3, 1, 15
15. O=C(/C=C/c1ccccc1F)c1ccoc1
→ i, 12, -2, ., -12, -4, -1, -2
16. c1ccc(CN2CC[C@@H](Nc3nccn4ccnc34)C2)cc1
→ ., ., ., 4, -15, 4, 7, .
17. Cc1ccc(S(=O)(=O)NCCC(=O)NCCc2ccccc2)cc1
→ ., ., ., -5, -17, 2, 0, .
18. CCCCCOc1ccc(C(C)(O)C(CN2CCOCC2)c2ccccc2)cc1 (stereo not given)
→ i, 8, -7, 18, -10, -12, -10, -4
19. O=S(=O)(NCc1cc(-c2ccccc2Cl)no1)c1ccc(Cl)cc1
→ i, 4, -5, -67, -23, -1, 3, -1
20. CC(C)(C)C1CCc2nc(NC(=O)Cc3cn4ccsc4n3)sc2C1 (stereo not given)
→ i, 12, 0, ., -31, 4, -1, -12
21. COc1ccc(NC(=O)C(c2ccc(OC)cc2)N(C)C(=O)c2cnccn2)cc1 (stereo not given)
→ i, -13, 1, -13, -4, 2, -8, 1
22. O=C(CSc1cn(CCNC(=O)c2c(F)cccc2F)c2ccccc12)NCC1CCCO1 (stereo not given)
→ i, -2, -8, 24, -4, -1, -5, -4
23. C[C@H]1CN([C@@H](C)CO)S(=O)(=O)c2ccc(Br)cc2O[C@H]1CN(C)C(=O)c1cccc(F)c1
→ ., ., ., 17, 8&22, 1, 3, .
24. CCCNC(=O)C(Cc1cccc(Br)c1)NC(=O)c1ccc(C#N)cc1 (stereo not given)
→ ., 15, ., 16, -11, -2, -4, .
25. COc1ccc(OC)c(CNC(=O)CCc2cn(C)c3ccccc23)c1
→ i, -20, -4, -12, -2, 0, 0, -1
26. COC(=O)c1[nH]c2ccc(Br)cc2c1NC(=O)CN1CCCc2ccccc21
→ i, -11, 0, -1, -14, -10, -6, -8
27. COc1ccc(Cl)cc1-n1c(=S)sc2c(=O)[nH]c(SCC(=O)NCC3CCCO3)nc21 (stereo not given)
→ ., -13, 3, ., -4, 3, 8, -2
28. N#Cc1nc(-c2ccc(Cl)cc2)oc1NCCc1ccccn1
→ i, -13, 0, -49, -15, 12, 1, 10
29. Cc1cc(C)c2[nH]c(=O)c(C(c3nnnn3Cc3ccc4c(c3)OCO4)N3CCC(C)CC3)cc2c1 (stereo not given)
→ i, -5, 10, ., -4, 1, 0, 42
30. Cc1cc(-c2ccc(Cl)cc2)n2nc(C)cc2n1
→ i, -2, 3, 5, -3, -1, -1, 2
31. Cn1cccc1C(=O)N1CCN(S(=O)(=O)c2ccccc2)CC1
→ i, -10, ., -2, ., -2, 5, .
32. CCOc1ccc(CCNC(=O)c2sc3nc4n(c(=O)c3c2C)CCC4)cc1
→ i, -8, -7, -2, -18, 1, -3, -5
33. Cc1cc(NC(=O)CC(C)C)c(=O)n(Cc2ccccc2F)c1
→ i, -8, 1, 3, -15, -3, 5, -8
34. O=c1c(-c2nnc(SCc3ccc(Cl)cc3)o2)cccn1Cc1ccccc1
→ i, -8, -11, -13, -25, 4, -8, -6
35. CCOC(=O)C(=CNc1ccc(N2CCOCC2)cc1)C(=O)OCC
→ i, -15, 0, 4, 18, -1, 1, -1
36. CC(C(=O)N(C)C)N(C#N)c1nc(N(C)C)nc(N(C)C)n1 (stereo not given)
→ i, 1, -5, ., -8, 1, 3, 0
37. O=c1[nH]cnc2c1sc1nc(-c3ccccc3)c3c(c12)CCCC3
→ i, -4, 0, -7, ., 1, 3, 2
38. O=C(CNS(=O)(=O)c1ccc2ccccc2c1)OCc1csc(-c2ccccc2)n1
→ i, 14, -5, 2, ., 1, 6, -11
39. O=C(NNC(=O)c1ncc(Cl)c(Cl)c1Cl)c1ccc(F)cc1
→ i, -10, 10, -9, 8, -7, 0, -3
40. CCCCN1C(=O)C(CC(=O)NCC2CCCCC2)CC(C(=O)N(C(C)C)C(C)C)=C1C (stereo not given)
→ ., ., ., 17, 10, -4, -3, .
41. Cn1nnnc1SCC(=O)NC1CCCc2ccccc21 (stereo not given)
→ i, -14, -4, -4, ., 2, 4, -12
42. Cc1ccsc1CNC(=O)C1(C)CCN1C(C)C (stereo not given)
→ ., ., ., 6, -11, -1, 6, .
43. CCOc1ccccc1C(=O)Nc1cc(C)ccc1NC(=O)c1ccco1
→ i, 5, -8, -11, -7, 1, 1, -9
44. CC(C)OC(=O)c1cc(Cl)c(=O)n(Cc2ccc(Cl)cc2Cl)c1
→ i, 1, -3, 8, -9, -3, -2, -1
45. O=C(NCc1ccc2c(c1)OCO2)c1cc(-c2cc(Cl)ccc2O)n[nH]1
→ i, -8, 9, -3, -17, 6, 4, -5
46. C=C(C)COc1ccc(-c2nc(N)nc(C(F)(F)F)c2-c2ccc(OC)cc2)c(O)c1
→ i, 50, 12, 8, 3, -4, -8, 3
47. O=c1cc(-c2ccccc2)nc2c(-c3ccccc3)c(C(F)(F)F)[nH]n12
→ i, 90*, 23, 9, -11, 2, -14, -1
48. Cc1ccccc1N1C(=O)C(Cl)=C(N2CCN(c3ccccc3)CC2)C1=O
→ i, ., -2, 37, -9, 3, 5, -1
49. COc1cc(/C=N/NC(=O)CCc2c(C)n[nH]c2C)cc(OC)c1OC
→ i, 2, -9, 11, -9, 1, 4, 9
50. COc1ccc(C(=O)C2CCCN(C(=O)c3cccs3)C2)cc1F (stereo not given)
→ i, -1, 2, -1, ., -2, -3, 0
51. CCc1ccc(OC)c(S(=O)(=O)NCCOc2ccccc2)c1
→ i, -9, -7, ., 5, 3, 0, -3
52. Nc1nc(-c2ccccc2)c(N=Nc2ccccc2Cl)s1
→ i, -6, 21, -33, ., 42*, -4.0*, -1
53. Cc1oc(C(=O)O)cc1COc1cccc2ccccc12
→ i, 0, 9, 4, -11, -1, 4, 3
54. CNC(=O)c1[nH]cnc1C(=O)Nc1ccccn1
→ i, -5, 15, -3, ., 1, 3, -6
55. COc1cc(C(=O)Nc2nnc(CC(C)C)s2)c([N+](=O)[O-])cc1OC
→ i, -2, -7, 11, -4, 3, -1, -4
56. Cc1ccccc1NC(=O)CCC(=O)N/N=C/c1cccnc1
→ i, -26, 7, 17, -9, -4, 2, -7
57. CC1=C(C(=O)OC(C)C)C(c2cccs2)NC(=O)N1 (stereo not given)
→ i, -18, ?, 8, -24, 5, 4, -10
58. CCCCN1CC(Br)C(=O)NC1=O (stereo not given)
→ ., ., ., -7, -18, 1, 4, .
59. CCOC(=O)c1c(NC(=O)CSc2nnc(-c3cccc(C)c3)n2CC)sc(C(C)=O)c1C
→ i, 40, -8, ., -10, -2, -6, -6
60. O=C(CCC1CCCC1)Nc1cc(C(F)(F)F)ccc1N1CCOCC1
→ i, 7, ., 39, -16, 0, -4, .

# 11 compounds from above, arranged by number of heavy atoms, rising.
# Under each structure: Rce1 inhib, CSC inhib, PABP polyA inh, Env fusion inh, UUG fidelity, MT1-MMP act inh, MT1-MMP act inh RFP, eIF4H FP inh
58. CCCCN1CC(Br)C(=O)NC1=O (stereo not given)
→ ., ., ., -7, -18, 1, 4, .
54. CNC(=O)c1[nH]cnc1C(=O)Nc1ccccn1
→ i, -5, 15, -3, ., 1, 3, -6
57. CC1=C(C(=O)OC(C)C)C(c2cccs2)NC(=O)N1 (stereo not given)
→ i, -18, ?, 8, -24, 5, 4, -10
52. Nc1nc(-c2ccccc2)c(N=Nc2ccccc2Cl)s1
→ i, -6, 21, -33, ., 42*, -4.0*, -1
44. CC(C)OC(=O)c1cc(Cl)c(=O)n(Cc2ccc(Cl)cc2Cl)c1
→ i, 1, -3, 8, -9, -3, -2, -1
50. COc1ccc(C(=O)C2CCCN(C(=O)c3cccs3)C2)cc1F (stereo not given)
→ i, -1, 2, -1, ., -2, -3, 0
55. COc1cc(C(=O)Nc2nnc(CC(C)C)s2)c([N+](=O)[O-])cc1OC
→ i, -2, -7, 11, -4, 3, -1, -4
47. O=c1cc(-c2ccccc2)nc2c(-c3ccccc3)c(C(F)(F)F)[nH]n12
→ i, 90*, 23, 9, -11, 2, -14, -1
48. Cc1ccccc1N1C(=O)C(Cl)=C(N2CCN(c3ccccc3)CC2)C1=O
→ i, ., -2, 37, -9, 3, 5, -1
46. C=C(C)COc1ccc(-c2nc(N)nc(C(F)(F)F)c2-c2ccc(OC)cc2)c(O)c1
→ i, 50, 12, 8, 3, -4, -8, 3
59. CCOC(=O)c1c(NC(=O)CSc2nnc(-c3cccc(C)c3)n2CC)sc(C(C)=O)c1C
→ i, 40, -8, ., -10, -2, -6, -6

# The listing continues.
# Under each structure: Rce1 inhib, CSC inhib, PABP polyA inh, Env fusion inh, UUG fidelity, MT1-MMP act inh, MT1-MMP act inh RFP, eIF4H FP inh
61. CCC(C)NS(=O)(=O)c1cc2c3c(c1)CCN3C(=O)CC2 (stereo not given)
→ i, -13, 4, 0, -10, -4, 0, -7
62. Cc1cc(C)c(NC(=O)CS(=O)CC(=O)Nc2ccc(F)cc2F)c(C)c1 (stereo not given)
→ i, -8, 6, 0, -21, -1, -1, 2
63. O=C(CC1CCCCC1)OCn1nnc2ccccc2c1=O
→ i, -6, -1, -2, -5, -5, 4, -1
64. Cc1[nH]c2ccccc2c1NC(=O)CN1CCN(Cc2ccc3c(c2)OCO3)CC1
→ i, ., 45, ., ., ., ., 16
65. COc1ccc(-c2csc(N(CCCN(C)C)C(=O)c3cc(OC)c(OC)c(OC)c3)n2)cc1
→ i, 4, -5, 0, -12, -4, -1, -11
